Screens (PubChem BioAssay)
StopGo reporter: High Throughput Screening for Foot and Mouth Disease Virus Antivirals | human cells with a luciferase reporter of 2A StopGo recoding; control for the full effect not named in the record | Potency, µM (top dose mostly 57.9 µM), without a hit: top-dose signal change, negative = less light | hit rate 1.2% among 410,000 | AID 1159524, 2015; active = well fitted falling curve with a large enough effect; inconclusive = small, poorly fitted or top-dose-only effect; inactive = no such curve, though single readings can be large or run the other way; tested in HEK293T cells; note: % is set by controls: 0 for no effect and ±100 for the full control effect; nearly all actives have a fitted effect of over 45% in size; luciferase light after 4 h
Cruzain Triton: qHTS Assay for Promiscuous and Specific Inhibitors of Cruzain (with detergent); purified cruzain, Z-FR-AMC fluorescence, 0.01% Triton; AID 1478, 2009; hit rate 0.43% among 200,000; Cruzipain (Trypanosoma cruzi), P25779; Potency, µM, inactives show max response, negative = inhibition, hits mostly inhibitors; active = well fitted curve in the direction sought with a large enough effect; inconclusive = small, poorly fitted or top-dose-only effect, or another doubt; inactive = no such curve, though single readings can be large; an effect the other way counts as inactive or inconclusive;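 note: plate controls were neutral wells for no effect and buffer without enzyme for full effect; nearly all actives have a fitted effect of over 40% in size; top concentration of the series not given in the record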
Target sequence (P25779 123-467 limits assumed): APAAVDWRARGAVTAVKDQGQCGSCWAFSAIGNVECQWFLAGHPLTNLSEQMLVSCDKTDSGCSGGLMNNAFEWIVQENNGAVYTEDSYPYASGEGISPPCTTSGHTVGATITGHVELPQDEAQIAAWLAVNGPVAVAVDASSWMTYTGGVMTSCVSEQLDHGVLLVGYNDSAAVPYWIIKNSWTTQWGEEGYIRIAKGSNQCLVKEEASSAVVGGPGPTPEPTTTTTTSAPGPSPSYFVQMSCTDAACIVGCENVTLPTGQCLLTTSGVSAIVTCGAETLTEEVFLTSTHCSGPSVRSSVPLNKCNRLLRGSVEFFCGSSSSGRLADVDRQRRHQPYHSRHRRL
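Detergent-containing arm of a paired screen for aggregation-based inhibition: 0.01% Triton X-100 present. Cruzain at 1.5 nM cleaved 2 uM Z-FR-AMC at pH 5.5 with 5 mM DTT; AMC fluorescence gain over 60 s measured activity.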
SARS PLP yeast: qHTS of Yeast-based Assay for SARS-CoV PLP; S. cerevisiae expressing SARS-CoV PLpro, growth rescue; control for the full effect not named in the record; Potency, µM (highest dose often 32.9 µM), inactives show at the highest dose activity, positive = growth rescue; hit rate 0.19% among 330,000; note: 0% is about no effect; nearly all actives have a fitted effect of over 55% in size; growth read by luminescence after 48 h
MARV entry inh: qHTS for inhibitors of binding or entry into cells for Marburg Virus | Marburg virus pseudotyped entry inhibition, cell reporter; control for the full effect not named in the record; about a third of the inactives were read at about 46 µM | Potency, µM (doses to about 37.8 µM), inactives show at the highest dose activity change, negative = inhibition, actives largely listed as inhibitors | hit rate 1.8% among 300,000; active = well fitted inhibition curve with a large enough effect; inconclusive = small, poorly fitted or top-dose-only effect, or effect the other way; inactive = flat fitted curve, though single readings scatter; tested in HEK293 cells; about a fifth of its hits are not listed in these tables; note: % is set by controls: 0 for no effect and ±100 for the full control effect; luciferase read-out
NS1 inh: qHTS Assay for Inhibitors of Influenza NS1 Protein Function | hit rate 0.4% among 270,000 | S. cerevisiae slowed by influenza A NS1, growth recovery by OD600 | Potency, µM (top dose mostly 46.1 µM), for the others: at the top dose activity, positive = more growth | AID 2326, 2010; note: actives are rising curves; nearly all actives have a fitted effect of over 50% in size
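A cell-based growth assay was used: compounds that relieve NS1-induced slow growth of budding yeast raise OD600. Assay medium was yeast nitrogen base with ammonium sulphate and -URA supplement, pH 6.0, with 2% galactose.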
RE007 growth inh: qHTS Assay for Inhibitors of the HIV-1 protein Vpr; Potency, µM (doses to about 92.2 µM), for the others: at the top dose activity change, negative = less growth; AID 651644, 2012; S. pombe RE007 Vpr strain, BacTiter-Glo ATP luminescence, 24 h; control for the full effect not named in the record; hit rate 0.21% among 360,000; active = well fitted falling curve with a large enough effect; inconclusive = small, poorly fitted or top-dose-only effect; inactive = no such curve, though single readings can be large or run the other way;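 note: % is set by controls: 0 for no effect and ±100 for the full control effect; nearly all actives have a fitted effect of over 50% in size; the assay follows cell death caused by Vpr and the record does not say whether a fall means rescue or toxicity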
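Fission yeast strain RE007, carrying one chromosomally integrated HIV-1 vpr copy, was seeded at OD 0.01 in PMG+AL medium with 23 nL pinned compound. After 24 h at 30 °C and 99% humidity, viability was read by BacTiter-Glo luminescence.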
Lassa entry inh: qHTS for Inhibitors of binding or entry into cells for Lassa Virus; AID 540256, 2011; hit rate 1.2% among 300,000; Lassa virus pseudotype entry inhibition, cell reporter; control for the full effect not named in the record; Potency, µM (highest dose often 37.9 µM), inactives show at the highest dose activity change, negative = inhibition, actives largely listed as inhibitors; active means well fitted inhibition curve with a large enough effect; inconclusive means small, poorly fitted or top-dose-only effect, or effect the other way; inactive means flat fitted curve, though single readings scatter; tested in HEK293 cells; note: % is set by controls: 0 for no effect and ±100 for the full control effect; nearly all actives have a fitted effect of over 50% in size; luciferase read-out
Cruzain inh noDet: qHTS Assay for Promiscuous and Specific Inhibitors of Cruzain (without detergent); hit rate 2.3% among 200,000; AID 1476, 2009; purified cruzain, Z-FR-AMC fluorescence, no detergent; Potency, µM, inactives show max response, negative = inhibition, most hits filed as inhibitors; active = well fitted curve in the direction sought with a large enough effect; inconclusive = small, poorly fitted or top-dose-only effect, or another doubt; inactive = no such curve, though single readings can be large; an effect the other way counts as inactive or inconclusive;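 note: plate controls were enzyme without inhibitor for no effect and buffer without enzyme for full effect; nearly all actives have a fitted effect of over 40% in size; top concentration of the series not given in the record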
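Detergent-free condition (0.00005% Triton X-100) in acetate buffer pH 5.5 with DTT. 1.5 nM enzyme and compound were pre-mixed 15 min, then 2 uM Z-FR-AMC substrate added; reaction progress from fluorescence change between first and third reads (60 s).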
Active calls of the source: *; ? = inconclusive; . = not tested or not shown; & = joins results of further samples; [ ] = remark or other dose. Unless noted, calls come from the whole dose curve; as a rule, active means well fitted rising curve with a large enough effect; inconclusive means small, poorly fitted or top-dose-only effect; inactive means no such curve, though single readings can be large or run the other way. Potency is the fitted concentration of half-maximal effect.

SMILES	StopGo reporter	Cruzain Triton	SARS PLP yeast	MARV entry inh	NS1 inh	RE007 growth inh	Lassa entry inh	Cruzain inh noDet
CCc1ccc(NC(=O)COC(=O)/C=C/c2ccco2)cc1	0%	.	-22%	19%&19%	.	-14%	0%[46.1 µM]	.
CCOC(=O)c1sc2nc(CC(=O)OC)nc(NCc3ccc(F)cc3)c2c1C	?	-2.2%	3%	-3%	?	-9%	-6%	11%
O=S(=O)(Nc1ccccc1C(F)(F)F)c1ccc(N2CCCCS2(=O)=O)cc1	-7%	-1.0%	.	.	.	.	?	20%
CC(C)c1nnc(NC(=O)Cc2ccccc2[N+](=O)[O-])s1	23%	-3.5%	-2%	24%	14%	.	16%	2%
O=C(Cc1ccc(Br)cc1)Nc1ccc2[nH]ncc2c1	-3%	.	-2%	-12%	1%	-11%	22%	.
O=S(=O)(Nc1ccc(Cc2ccncc2)cc1)c1cccs1	.	0.7%	-8%	1%	-8%	4%	-25%	7%
CN(/N=C/c1ccc([N+](=O)[O-])o1)c1ccccc1	0%	.	-12%	-25%[46.1 µM]	.	-30%	-14%	.
Cc1ccc(-n2nc3c(N4CCC(C(=O)NCCc5ccccc5C)CC4)nnc(C)c3c2C)cc1	?	-2.4%	0%	.	17%	0%	-19%[46.1 µM]	13%
COC(=O)CSc1nnc(-c2cccs2)n1-c1ccc(Cl)cc1	-4%	-6.7%	0%	15%	-19%	-17%	3%	-3%
CCc1c(Cl)nc(N)nc1Nc1ccccc1Cl	-18%	.	.	?	.	12%	18%	.
COc1ccccc1CN=c1c([N+](=O)[O-])nn(-c2ccc3c(c2)OCCO3)n1O	8%	-8.6%	-7%	?	-8%	11%	18%	-13%
Cc1ccc(/C=C/C(=O)NC2=NCCS2)cc1	-38%	-16%	-42%	3.2µM*	-15%	-11%	1.6µM*	-13%
CCNc1ncnc2[nH]ncc12	0%	.	.	-7%[46.1 µM]	.	-11%	0%[46.1 µM]	.
COC1C(OC(=O)/C=C/C=C/C=C/C=C/C(=O)O)CCC2(CO2)C1C1(C)OC1CC=C(C)C (stereo unspecified) (tested in a mixture with another compound)	-11%	.	.	-20%	.	7%	-15%	.
O=C(O)c1cccc(S(=O)(=O)N2CCN(C(c3ccccc3)c3ccccc3)CC2)c1	-4%	.	0%	14%[46.1 µM]	.	3%	-9%[46.1 µM]	.
CCc1c(C)[nH]c(C(=O)OCc2ccccc2)c1C	40%[activator]	.	-2%	.	-2%	-12%	.	.
CC1(C)CC(=O)C(C=Nc2ccc(NC3=C(C#N)C(=O)CC(C)(C)C3)cc2)=C(O)C1	-16%	.	2%	?	6%	1%	4%[46.1 µM]	.
COc1ccc(-c2nc(NC(=O)c3ccccc3)sc2-c2ccc([N+](=O)[O-])cc2)cc1	-24%	-1.8%	6%	6%	27%	-1%	10%	7.9µM*
COc1ccc(NS(=O)(=O)c2cc(C(=O)N3CCN(C(C)=O)CC3)ccc2Cl)cc1	3%	.	3%	-12%[46.1 µM]	.	7%	-23%[46.1 µM]	.
CCC(C(=O)Nc1cc(C(=O)Nc2cc(C)ccn2)ccc1Cl)c1ccccc1 (stereo unspecified)	-8%	-5.8%	-5%	?	-5%	-6%	-17%	?
CCN(Cc1ccccc1)S(=O)(=O)CCNC(=O)c1ccccc1	0%	.	-1%	3%	.	-3%	-12%	.
CCOC(=O)c1oc2ccc(S(=O)(=O)n3nc(-c4ccc(Br)cc4)cc3N)cc2c1C	-19%	0.6%	.	1%[46.1 µM]	.	.	?	-5%
CSCCC1C(=O)OC2(C)CC(C)(C)NC(=S)N12 (stereo unspecified)	20%	4.9%	5%	-5%	7%	14%	3%	-1%
CC1CCCCC1NC(=O)COC(=O)CNC(=O)c1cccc(F)c1 (stereo unspecified)	-2%	.	3%	-14%[14.2 µM]	.	-22%	6%	.
O=C(O)CCCn1cc(NC(=O)c2cc(F)c(F)cc2Cl)cn1	-21%	.	1%	6%[46.1 µM]	5%	19%	0%	.
CCOC(=O)c1c(C)[nH]c(C)c1S(=O)(=O)NCC(=O)Nc1ccc(C)c(N(C)C)c1	-2%	3.2%	.	.	.	.	-12%[46.1 µM]	5%
Cn1c(=O)c(C(=O)COC(=O)c2cc(-c3ccco3)nc3ccccc23)c(N)n(Cc2ccccc2)c1=O	.	-15%&-27%	0%	-22%&-22%	8.9µM*	.	-17%	12%&15%
CCc1ccc(CNC(=O)Cn2nc(-c3ccccc3)ccc2=O)cc1	-10%	.	-8%	5%&5%	.	6%	-20%	.
CCOC(=O)C1(CC)NC(c2ccco2)C2C(=O)N(c3ccc(C)cc3)C(=O)C21 (stereo unspecified)	10%	2.5%	11%	-29%[46.1 µM]	-2%	-5%	-2%	11%
CCOC(=O)C1=C(C)NC2=C(C(=O)CC(c3ccc(OC)c(OC)c3)C2)C1c1ccc(C)o1 (stereo unspecified)	?	-7.7%	-6%	?	3%	-6%	-10%	?
O=C(N/N=C/c1cc([N+](=O)[O-])ccc1Cl)c1cc(-c2ccccc2)nc2ccccc12	?	.	0%	.	1%	-4%	.	.
Cc1nc2ncnn2c(N2CCN(C(c3ccccc3)c3ccccc3)CC2)c1C	0%	-5.4%	.	-5%	-134%	3%	?	?
CC(=O)Nc1ccc(S(=O)(=O)N2CCN(C(=O)c3ncoc3-c3ccccc3C)CC2)cc1	?	.	-2%	-9%[46.1 µM]	-49%	4%	-32%	.
O=C(NC(Cc1ccccc1)C(=O)O)C1CCCCC1 (stereo unspecified)	-3%	2.8%	-9%	.	0%	-7%	.	3%
CC(C)CCN1C(=O)C2(OCCCO2)c2cc(Cl)ccc21	-23%	.	0%	-11%	-15%	-6%	17%	.
O=C(NC1CCCC1)C1CCCN(S(=O)(=O)c2cnc[nH]2)C1 (stereo unspecified)	-7%	1.8%	5%	7%	-5%	1%	.	-1%
Cc1ccc(NC(=O)CCSc2nnc(C)o2)cc1	4%	.	0%	.	-7%	-1%	.	.
CCc1ccc(C(=O)NNC(=O)CCC2CCCCC2)cc1	13%	.	-1%	16%[46.1 µM]	9%	1%	12%	.
CCOC(=O)C1CCN(Cc2cnc(NC(=O)OC)s2)CC1	11%	2.7%	4%	14%	5%	1%[3.69 µM]	20%	-2%
COc1cccc(NC(=O)c2ccc(NC(=O)C3CC(=O)OC34CCCCC4)cc2)c1 (stereo unspecified)	-23%	.	0%	.	-10%	-12%	.	.
Fc1ccc(-c2cc(C(F)(F)F)nc(NCc3ccccc3)n2)cc1	-32%	1.5%	.	0%[46.1 µM]	.	.	12%[46.1 µM]	0%
Cc1ccc(Cn2c(C)c(CNCCCc3ccccc3)c(C(=O)O)c2C)cc1	-11%	-1.8%	.	-26%[46.1 µM]	.	.	20%[46.1 µM]	-6%
O=C(CNCc1cccnc1)Nc1cc(C(F)(F)F)ccc1N1CCOCC1	0%	.	1%	.	0%	6%	.	.
Cc1ccc2cccc(NS(=O)(=O)c3ccccc3)c2n1	?	.	15%	1.4µM*	15%	6%	?	.
O=C1CC(c2ccc(Br)cc2)NC(c2ccc(Br)cc2)C1c1ccccc1 (stereo unspecified)	.	1.6%	-21%	-1%	-28%	.	1%	?
Cn1cc(Cl)c(C(=O)OCC(=O)c2ccccc2)n1	34%[activator]	.	0%	9%[46.1 µM]	0%	-13%	-2%	.
CC(C)Sc1ncc(Cl)c(C(=O)Nc2ccc(S(=O)(=O)N3CCCCC3C)cc2)n1 (stereo unspecified)	-16%	4.5%	.	?	.	.	?	13%
CCOc1ccc(CN(C)CC(=O)Nc2ccc([N+](=O)[O-])cc2Cl)cc1	?	-1.1%	-10%	-5%	-2%	0%	-4%	-6%
CCc1nnc(NC(=O)CN2CCN(C(=O)c3ccccc3)CC2)s1	-4%	.	-1%	19%[46.1 µM]	2%	5%	-23%	.
CCc1ccccc1NC(=O)C1CC(c2ccc(OC)cc2)=NO1 (stereo unspecified)	-29%	.	1%	.	-1%	-7%	.	.
COC(=O)c1c(-c2cccnc2)csc1NC(=O)c1cc(C)on1	41%[activator]	-9.5%	-13%	?	-12%	0%	?	-22%
Cc1cc(NC(=O)CSc2ccc(-c3nc4cc(C)c(C)cc4[nH]3)cn2)no1	48%[activator]	2.3%	-4%	?	?	-10%	-2%	?
COc1cc(SC)ccc1C(=O)OCC(=O)NC1CCCC1	30%[activator]	.	-2%	-19%[46.1 µM]	-5%	19%	?	.
CN(C)CC(O)CN1C(=O)N(CN2C(=O)N(CC(O)CN(C)C)C(=O)C2(C)C)C(C)(C)C1=O (stereo unspecified)	7%	.	1%	-25%[46.1 µM]	9%	10%	-2%	.
COc1ccc(NC(=O)CN2CCN(CC(=O)Nc3ccccc3OC)CC2)c(OC)c1	0%	.	0%	.	-4%	1%	.	.
O=C(Cc1noc2ccccc12)Nc1ccc2ccccc2c1	42%[activator]	-9.5%	-14%	?	1%	-8%	4%	-4%
COc1ccc(CNC(=O)Nc2cccc3ccccc23)cc1	12%	-0.1%	4%	-2%[46.1 µM]	-6%	18%	0%	?
COc1cc(CCC(=O)N2CCN(c3ccccc3Cl)CC2)cc(OC)c1OC	-28%	.	0%	4%[46.1 µM]	-8%	-4%	-21%[46.1 µM]	.
CC(=O)c1cccc(N(CC(=O)N2CCCCC2)S(C)(=O)=O)c1	15%	1.6%	1%	-3%	3%	-12%	3%	-7%
O=C(CSc1nccn1C1CCCC1)Nc1ccccc1	27%	0.5%	.	.	.	.	?	?
CCOC(=O)c1sc2ccccc2c1S(=O)(=O)NCc1ccc(F)cc1	104%[activator]	-9.9%	.	.	.	.	0%[46.1 µM]	1%
